Assay outcomes deposited in PubChem BioAssay by several laboratories.
eIF4H FP inh – inhibitors of RNA binding by human eIF4H; 290,000 compounds, 0.94% hits; eIF4H fluorescence polarization binding assay; inhibition, % at 35 µM; AID 2012; Q15056;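 active = 50% or more with normal probe brightness, or confirmed in later tests; inconclusive = above 50% with abnormal brightness, or retests that disagree; inactive = below 50% or failed in later tests; about a fifth of its hits are not listed in these tables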;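 also: calls also rest on retests at 20 µM and on dose response follow-up; 0% = protein and probe with vehicle and 100% = probe without protein; strong numbers were not always called active; many hits fall short of the cut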
HIV Env fusion – blocks HIV Env-driven cell-cell fusion | HeLa-JRFL Env/CEM21 cell fusion, luciferase | inhibition, % at 12.3 µM | 360,000 compounds, 1.1% hits | AID 651610;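 active = mean replicate inhibition score of at least 50 and every replicate individually at or above 50; inconclusive = only one of the two criteria met; inactive = mean below 50 and not all replicates reaching 50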;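 also: 0% = plate neutral controls and 100% = maraviroc near 300 nM; one replicate is shown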
CSC inhib – blocks cancer stem cells; cancer stem cell-like cells viability, luminescence; inhibition, % at 7.5 µM; 300,000 compounds, 1.1% hits;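 active = mean at 75% or more and at least half the replicates too; inconclusive = mean and replicates disagree; tested in HMLE shEcad cells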;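 also: 0% = median of negative and 100% = median of positive control wells; the first replicate is given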
Rce1 inhib – yeast Ras-converting enzyme inhibition | Q03530 | yeast membranes, quenched prenylated peptide cleavage fluorescence | calls only | 290,000 compounds, 0.27% hits | AID 2563;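 active = fall in fluorescence gain of 50% or more versus controls, with final raw signal at or below 3038400; inconclusive = same 50% fall but final raw signal above 3038400; inactive = fall in fluorescence gain under 50%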;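 also: plate controls were neutral control wells for no effect and wells lacking membranes for full effect; tested at 10 µM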
Target sequence (Q03530 whole entry, looked up): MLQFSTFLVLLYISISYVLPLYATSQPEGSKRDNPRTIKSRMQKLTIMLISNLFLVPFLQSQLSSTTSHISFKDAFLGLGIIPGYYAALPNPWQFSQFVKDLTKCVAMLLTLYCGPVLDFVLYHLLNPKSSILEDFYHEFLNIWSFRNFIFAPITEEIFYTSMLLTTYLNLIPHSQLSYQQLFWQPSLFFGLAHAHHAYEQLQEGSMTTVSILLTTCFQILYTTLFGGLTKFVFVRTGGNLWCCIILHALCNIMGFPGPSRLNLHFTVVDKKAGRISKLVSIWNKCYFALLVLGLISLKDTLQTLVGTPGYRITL
Yeast UUG start – yeast start codon fidelity modulation | S. cerevisiae UUG-firefly luciferase reporter, luminescence/redox ratio | 350,000 compounds, 0.13% hits | activity score, % at 18.7 µM;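 active = replicate mean at a twofold rise or more, about +100% in these data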;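 also: firefly luciferase made from a UUG start codon reports start codon fidelity; reporter light over untreated wells divided by growth signal over untreated wells; some hits fall short of that in this replicate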
PABP FP inh – blocks human PABP binding to poly(A) RNA | inhibition, % at 35 µM | 290,000 compounds, 1% hits | fluorescence polarization | P11940;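 active = 50% or more with normal probe brightness, or confirmed in later tests; inconclusive = above 50% with abnormal brightness, or retests that disagree; inactive = below 50% or failed in later tests; about a fifth of its hits are not listed in these tables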;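 also: calls also rest on retests at 20 µM and on dose response follow-up; controls were probe without protein and protein plus probe with vehicle; some compounds called inactive have numbers as strong as hits; many hits fall short of the cut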
Target sequence (P11940 whole entry, looked up): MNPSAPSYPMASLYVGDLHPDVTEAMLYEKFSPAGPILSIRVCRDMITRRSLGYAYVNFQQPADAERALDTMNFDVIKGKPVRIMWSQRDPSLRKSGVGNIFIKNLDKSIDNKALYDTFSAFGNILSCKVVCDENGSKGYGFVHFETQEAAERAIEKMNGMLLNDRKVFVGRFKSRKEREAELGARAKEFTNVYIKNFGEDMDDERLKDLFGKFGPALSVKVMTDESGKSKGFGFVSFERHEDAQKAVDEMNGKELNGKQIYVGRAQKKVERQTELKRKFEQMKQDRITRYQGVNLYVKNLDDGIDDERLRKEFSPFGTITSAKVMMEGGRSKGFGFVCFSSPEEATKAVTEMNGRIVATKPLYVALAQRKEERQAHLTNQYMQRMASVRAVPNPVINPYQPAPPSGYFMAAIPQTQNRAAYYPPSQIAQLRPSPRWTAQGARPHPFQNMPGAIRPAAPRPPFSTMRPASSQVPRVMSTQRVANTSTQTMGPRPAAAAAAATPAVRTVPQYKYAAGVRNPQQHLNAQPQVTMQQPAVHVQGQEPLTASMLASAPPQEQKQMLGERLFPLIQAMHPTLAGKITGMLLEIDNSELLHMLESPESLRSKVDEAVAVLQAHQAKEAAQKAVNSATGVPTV
MT1-MMP act inh – MT1-MMP (human) activation inhibition; P50281; HT1080 RFP-PRO-GFP cells, GFP/RFP ratio fluorescence, overnight; percent of plate control window, DMSO zero; GFP/RFP ratio change, % at 20 µM; 360,000 compounds, 0.061% hits;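 active = GFP/RFP ratio change of at least 30% with cell ATP level not reduced by more than half and red fluorescence within 50% of control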; also: strong numbers were not always called active
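Assay system: HT1080 cells carrying an RFP-PRO-GFP reporter | Dosing: Single dose of 20 µM compound, 1% DMSO final | Incubation: Cells overnight before dosing, compound overnight, 37 °C, 5% CO2 | Evaluation: GFP/RFP fluorescence ratio | Control set: DMSO and RFP-L50D-GFP cell wells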
eIF4H FP inh retest – also measured in eIF4H FP inh; calls as there; inhibition, %; compound at 20 µM; confirmation average;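 mean of two retest wells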
PABP FP inh retest – second read-out of PABP FP inh, no call of its own (marks repeat the call); inhibition, %; compound at 20 µM; confirmation repeats;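 mean of two retest wells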
MT1-MMP act inh RFP – recorded beside MT1-MMP act inh, whose call it bears; RFP signal change, %; measured here: RFP expression control read;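 0 = vehicle wells; hits needed this value within 50% of zero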
The depositor's hits bear a star; i = inactive; ? = inconclusive; nt = no result given; + = active, no number; & = joins results of further samples. An excerpt, so the mix of outcomes need not match the whole.

The first 16 compounds, ahead of the listing:
SMILES	eIF4H FP inh	HIV Env fusion	CSC inhib	Rce1 inhib	Yeast UUG start	PABP FP inh	MT1-MMP act inh	MT1-MMP act inh RFP	others
Cc1nc2ccccc2c(=O)n1-c1ccc(Cl)c(Cl)c1	-10	-10	-1	i	-17	-2	-1	-2
CN1CC(C(=O)c2ccc(F)cc2)C(c2c(F)cccc2Cl)C1 (configuration not stated)	-7	9	-12	i	nt	-5	-15	-5
c1nc2nc3c(c(N4CCNCC4)n2n1)CCCC3	5	nt	0	i	nt	3	nt	nt
O=C1C(=Cc2ccccc2)N2CCC1CC2	nt	-8	nt	nt	12	nt	-5	-4
Cc1cccc(Cn2cc(C=O)c3ccccc32)c1	2	-52	4	i	-3	19	-2	-16
O=[N+]([O-])c1ccc(CNCCc2ccccc2)cc1	7	-14	-10	i	-20	5	1	6
OCCNc1c2c(nc3ccccc13)CCCC2	-4	nt	-5	i	-6	0	-6	0
CCCCOc1ccc(CN2CCN(CC)CC2)cc1	-9	nt	-5	i	6	-6	1	0
COc1cc(CN=C(C)c2c(O)n(C3CCCCC3)c(=O)[nH]c2=O)cc(OC)c1	-14	24	-10	i	nt	-6	3	-7
CC(=O)Nc1ccc(S(=O)(=O)NC(CC(=O)N2CCC3(CC2)OCCO3)C(C)C)cc1 (configuration not stated)	5	nt	-8	i	-6	4	3	3
COC(=O)C1=C(c2ccc3ccccc3c2)C[C@@H]2CC[C@H]1N2C(=O)NC1CC1	nt	6	-7	nt	-4	nt	2	2
Nc1nc(N)c2cnnn2n1	nt	-7	nt	nt	-9	nt	-4	4
Cc1cccc(-n2c(O)c(C=Nc3ccc(S(N)(=O)=O)cc3)c(=O)[nH]c2=O)c1	?	7	6	i	nt	2	-3	3
COc1cccc(CN2CCN(c3ccc(F)cc3)CC2)c1OC	nt	3	nt	nt	-2	nt	0	3
CN(C(=O)Oc1ccc([N+](=O)[O-])cc1)c1ccccc1	-9	-87	-8	i	-2	2	1	1
O=C(c1ccc(F)cc1)N1CCC2(CC1)OCCO2	-2	-4	-14	i	-16	18	1	3

All compounds of this part, from the first entry:
SMILES	eIF4H FP inh	HIV Env fusion	CSC inhib	Rce1 inhib	Yeast UUG start	PABP FP inh	MT1-MMP act inh	MT1-MMP act inh RFP	others
Cc1nc2ccccc2c(=O)n1-c1ccc(Cl)c(Cl)c1	-10	-10	-1	i	-17	-2	-1	-2
CN1CC(C(=O)c2ccc(F)cc2)C(c2c(F)cccc2Cl)C1 (configuration not stated)	-7	9	-12	i	nt	-5	-15	-5
c1nc2nc3c(c(N4CCNCC4)n2n1)CCCC3	5	nt	0	i	nt	3	nt	nt
O=C1C(=Cc2ccccc2)N2CCC1CC2	nt	-8	nt	nt	12	nt	-5	-4
Cc1cccc(Cn2cc(C=O)c3ccccc32)c1	2	-52	4	i	-3	19	-2	-16
O=[N+]([O-])c1ccc(CNCCc2ccccc2)cc1	7	-14	-10	i	-20	5	1	6
OCCNc1c2c(nc3ccccc13)CCCC2	-4	nt	-5	i	-6	0	-6	0
CCCCOc1ccc(CN2CCN(CC)CC2)cc1	-9	nt	-5	i	6	-6	1	0
COc1cc(CN=C(C)c2c(O)n(C3CCCCC3)c(=O)[nH]c2=O)cc(OC)c1	-14	24	-10	i	nt	-6	3	-7
CC(=O)Nc1ccc(S(=O)(=O)NC(CC(=O)N2CCC3(CC2)OCCO3)C(C)C)cc1 (configuration not stated)	5	nt	-8	i	-6	4	3	3
COC(=O)C1=C(c2ccc3ccccc3c2)C[C@@H]2CC[C@H]1N2C(=O)NC1CC1	nt	6	-7	nt	-4	nt	2	2
Nc1nc(N)c2cnnn2n1	nt	-7	nt	nt	-9	nt	-4	4
Cc1cccc(-n2c(O)c(C=Nc3ccc(S(N)(=O)=O)cc3)c(=O)[nH]c2=O)c1	?	7	6	i	nt	2	-3	3
COc1cccc(CN2CCN(c3ccc(F)cc3)CC2)c1OC	nt	3	nt	nt	-2	nt	0	3
CN(C(=O)Oc1ccc([N+](=O)[O-])cc1)c1ccccc1	-9	-87	-8	i	-2	2	1	1
O=C(c1ccc(F)cc1)N1CCC2(CC1)OCCO2	-2	-4	-14	i	-16	18	1	3
COc1ccc(CCNCc2sccc2C)cc1OC	1	11	9	i	-19	-12	-4	0
Cc1cc(N(CCCl)CCCl)ccc1C=Cc1ccncn1	nt	2	nt	nt	-11	nt	-107	3
Cc1[nH]c2ccccc2c1CCN	nt	-52	-9	i	-13	nt	-9	4
CN1C(=O)N(C)C(=O)C2(Cc3ccccc3N3CCCC32)C1=O (configuration not stated)	7	1	-2	i	-7	4	-1	5
C=C1[C@@H](C)[C@H]2[C@H](Cc3ccccc3)NC(=O)[C@]23OC(=O)/C=C/[C@H](O)CCC[C@@H](C)C/C=C/[C@H]3[C@@H]1O	-6	69*	50	i	-5	2	10	18
CCC(=NCCN1CCOCC1)c1c(O)n(-c2ccccc2C)c(=O)[nH]c1=O	3	-6	-3	i	-12	8	-3	4
COc1cc(Br)cc(CN2CCN(C)CC2)c1O	-7	nt	-15	i	nt	3	-2	4
CN1[C@@H]2CCC[C@H]1CC(=O)C2	nt	11	nt	nt	-7	nt	-1	-2
C/C(=N\NP(=S)(c1ccccc1)c1ccccc1)c1ccc(O)cc1O	2	8	-6	i	-8	10	-4	-1
Next section
SMILES	eIF4H FP inh	HIV Env fusion	CSC inhib	Rce1 inhib	Yeast UUG start	PABP FP inh	MT1-MMP act inh	MT1-MMP act inh RFP	others
O=C(O)COc1ccc(Cl)cc1Cl	nt	4	-27	i	1	nt	-3	-6
O=[N+]([O-])c1ccc(N2CCNCC2)cc1N1CCCCCC1	-11	-3	8	i	2	-13	-13	-7
COc1ccc(-c2ccc(OC)c(OC)c2OC)cc1	nt	3	nt	nt	-5	nt	-2	-15
CCCCN1C(=O)/C(=C/C=C/c2ccco2)C(=O)NC1=S	72*	6	nt	i	-12	14*	-15	21	eIF4H FP inh retest=74*;PABP FP inh retest=60*
C=CCn1c(O)c(C(C)=NCCc2ccccc2)c(=O)[nH]c1=O	0	-61	-1	i	-10	-3	5	-2
CCCC[n+]1cc(/N=C(\[O-])OC)on1	9	-24	-5	i	-8	3	2	3
CN1CCC(OC(=O)c2cccc(F)c2)CC1	-5	20	14	i	nt	-8	1	3
COc1ccc(-n2nnnc2C(c2ccnc3ccccc23)N2CCC3(CC2)C(=O)NCN3c2ccccc2)cc1 (configuration not stated)	nt	-13	nt	nt	-7	nt	8	-7
CC1CCCN(CC(=O)c2ccc(Cl)c(Cl)c2)C1 (configuration not stated)	-5	-2	-5	nt	nt	-7	-3	3
CCN(c1ccc(C(O)(C(=O)OC)C(F)(F)F)cc1)S(=O)(=O)c1ccc(C)cc1 (configuration not stated)	-7	-21	-5	i	nt	-8	0	-6
COC(=O)C1=C(c2ccc(F)cc2F)C[C@@H]2CC[C@H]1N2C(=O)NCCOc1ccc(OC)cc1	nt	nt	6	nt	-5	nt	1	-1
COC(=O)C1=C(c2cc3ccccc3o2)C[C@@H]2CC[C@H]1N2C(=O)NCc1cccc2ccccc12	nt	101*	17	i	1	nt	1	-7
CCCCCCn1c(N)c(C(=O)NCCN2CCOCC2)c2nc3ccccc3nc21	-5	nt	111*	i	7	-5	-6	3
c1ccc(CCCN2CCN(CCOC(c3ccccc3)c3ccccc3)CC2)cc1	nt	8	69	+	-15	nt	0	-4
CCN(C(=O)CN1CC=C(c2ccccc2)CC1)c1c(N)n(Cc2ccccc2)c(=O)[nH]c1=O	0	6	-3	i	nt	-2	-4	3
C=CCn1c(O)c(/C=C/C=Nc2ccccc2)c(=O)[nH]c1=O	?	-16	4	i	nt	4	-23	2
CC(C)n1cc(C(=O)N(CC(=O)NC(C)(C)C)Cc2ccccc2)cn1	-6	-26	-2	i	0	2	10	6
c1coc(CNCCc2c[nH]c3ccccc23)c1	-3	7	1	i	-15	-2	1	3
C=CCCC[C@@H]1OC(=O)CNC(=O)C([C@@H](C)CC)NC(=O)[C@@H]2CCCN2C(=O)C([C@@H](C)CC)OC(=O)[C@H](Cc2ccccc2)N(C)C(=O)[C@H](C(C)C)NC(=O)C1(C)C (some centres not stated)	nt	28	nt	nt	-2	nt	-25	-35
CC(=O)OC[C@]12CCC(C)=C[C@H]1O[C@@H]1[C@H](O)[C@@H](OC(C)=O)[C@@]2(C)[C@]12CO2	-3	nt	-13	nt	-6	-2	-29	-48
CC(=O)OC1(c2ccccc2)CCN(C)C2CCCCC21 (configuration not stated)	1	nt	0	i	-3	12	-3	2
Cc1cccc(-n2c(-c3cccs3)nc3ccccc3c2=O)c1	0	nt	71	i	nt	-8	-3	-7
Cc1cccc(N2CCc3c2nc2ccccc2c3N)c1	8&6	3	7&10	i	-9	0&-2	0&0	-2&1
O=C(Cc1ccc([N+](=O)[O-])cc1)N1CCN(Cc2ccc3c(c2)OCO3)CC1	-5	7	8	i	-22	-6	7	3
CCc1ccc(N2C(=O)NC(=O)C(CCc3ccncc3)(CCc3ccncc3)C2=O)cc1	-4	9	-1	i	nt	-4	1	5
(next part)
SMILES	eIF4H FP inh	HIV Env fusion	CSC inhib	Rce1 inhib	Yeast UUG start	PABP FP inh	MT1-MMP act inh	MT1-MMP act inh RFP	others
CCC1C(c2ccccc2)NC(c2ccccc2)CC1(O)c1ccc(F)cc1 (configuration not stated)	-8	13	27	i	-8	6	-3	-4
COc1ccc(SCC2CN(C)CCC2c2ccc(F)cc2)cc1 (configuration not stated)	nt	10	29	i	nt	nt	-1	0
CCC(=NCC1CCCO1)c1c(O)n(-c2ccccc2)c(=O)[nH]c1=O (configuration not stated)	-13	nt	-15	i	nt	-13	4	6
CN(C)c1ccc(C=C2C(=O)NC(=S)NC2=O)cc1[N+](=O)[O-]	15	-16	1	i	nt	36	5	-1
Cc1cc(-c2ccccc2)cc(-c2ccccc2)[n+]1CCc1ccccc1	nt	17	16	i	3	nt	-4	-33
Cc1ccccc1CN1CCCN(Cc2ccc(Cl)cc2)S1(=O)=O	-1	24	nt	i	-11	0	5	7
COC(=O)C1C(C(=O)O)C2(Cl)C(Cl)=C(Cl)C1(Cl)C2(Cl)Cl (configuration not stated)	nt	9	nt	nt	-13	nt	-17	-5
COC(=O)C1=C(c2ccc(OC)c(OC)c2)C[C@@H]2CC[C@H]1N2C(=O)NCc1ccc(F)cc1	nt	19	0	nt	20	nt	0	2
O=C1NC(=O)C(CCc2ccncc2)(c2ccccc2)C(=O)N1	17	6	2	i	-12	-14	nt	nt
CC(=O)O[C@H]1CC[C@]2(C)C3CC[C@@]4(C)C(C[C@@H](O)[C@@H]4O)C3[C@@H](OC(C)=O)C[C@H]2C1 (some centres not stated)	nt	17	nt	nt	-4	nt	5	3
CC(C)CC(=O)Nc1ccc(S(=O)(=O)N2CC3CC(C2)c2cccc(=O)n2C3)cc1 (configuration not stated)	nt	-5	0	i	-4	nt	-2	3
